Bioassay records from PubChem BioAssay.
Vaccinia Venus = inhibitors of vaccinia virus (Venus reporter). 0.46% of 330,000 active. Vaccinia virus Venus reporter expression, fluorescence. AID 720580. Potency, µM (doses to about 36.5 µM), without a hit: at the highest dose activity change, negative = inhibition, usual class: inhibitors; active means well fitted inhibition curve with a large enough effect; inconclusive means small, poorly fitted or top-dose-only effect; inactive means no such curve, though single readings can be large or run the other way; tested in A549 cells; note: nearly all actives have a fitted effect of over 30% in size; inactives centre near -10
VACV mCherry inh = vaccinia inhibition (mCherry reporter) | Vaccinia virus mCherry reporter infection, fluorescence; about a quarter of the inactives have no number | Potency, µM (top dose mostly 36.5 µM), without a hit: at the highest dose activity change, negative = inhibition, usual class: inhibitors | 0.63% of 310,000 active; active = well fitted inhibition curve with a large enough effect; inconclusive = small, poorly fitted or top-dose-only effect; inactive = no such curve, though single readings can be large or run the other way; tested in A549 cells; note: nearly all actives have a fitted effect of over 35% in size; inactives centre near -10
Numbers without * were called inactive; i = inactive; ? = inconclusive; · = no result given. % is set by controls: 0 for no effect and ±100 for the full control effect; potency is the fitted concentration of half-maximal effect.

Sample of the layout (18 entries):
SMILES	Vaccinia Venus	VACV mCherry inh
C#CCN(C[C@H]1[C@H](OC(=O)NCc2ccccc2)[C@H](OC(=O)NCc2ccccc2)C[C@@H](C(=O)OC)[C@H]1C(=O)OC)S(=O)(=O)c1ccc(C)cc1	-21%	?
Cc1ccc2c(c1)c1c(n2CC(O)CNC(CO)(CO)CO)CCCC1 (configuration not stated)	-11%	i
Nc1nnc(SC2CCCC2)s1	-3%	-14%
COc1ccc(C(=O)OCc2cc(C)ccc2C)cc1S(=O)(=O)N1CCCC1	-17%	-5%
Cc1ccc(-c2nc3ccccn3c2Nc2ccc3c(c2)OCO3)o1	-5%	-19%
C(=C\c1ccccc1)/CSc1nc2ncccc2[nH]1	-17%	-12%
O=C(Nc1ccc(S(=O)(=O)N2CCCCCC2)cc1)c1c(F)cccc1F	-17%	-5%
FC(F)(F)C1=CC(c2ccc(Br)cc2)=NCCN1	-21%	·
COc1ccc(NC(=O)C2CC(=O)NC(Nc3cccc(C)c3)=N2)cc1 (configuration not stated)	1%	·
CN(C)c1ccc(C2(O)C(=O)c3ccccc3C2=O)cc1	-7%	-5%
COc1ccc(S(=O)(=O)N(C)CC(=O)N2CCOCC2)cc1	-10%	-6%
COc1cc(Cl)c(NS(=O)(=O)c2ccc3[nH]c(=O)ccc3c2)c(OC)c1	-7%	-12%
COc1ccc(CCNC(=O)c2ccc3c(c2)N(Cc2cc(C)ccc2C)C(=O)c2ccccc2S3=O)cc1OC (configuration not stated)	-20%	-27%
COc1ccc(CCC(=O)OCC(=O)Nc2ccc3[nH]c(=O)[nH]c3c2)cc1	-4%	-11%
CS(=O)(=O)N1CCc2cc(-c3csc(NC(=O)C(c4ccccc4)c4ccccc4)n3)ccc21	-23%	-28%
O=C(CNS(=O)(=O)c1cccc(C(F)(F)F)c1)NC1CCCCCC1	-3%	-20%
Cc1ccc(S(=O)(=O)Nc2ccc(C(=O)Nc3ccncc3)cc2)cc1	-10%	-25%
CCN1CCN(c2ccc(NC(=O)c3cccc(S(=O)(=O)N4CCCC4)c3)cc2)CC1	-8%	0%

Results, repeating the preview:
SMILES	Vaccinia Venus	VACV mCherry inh
C#CCN(C[C@H]1[C@H](OC(=O)NCc2ccccc2)[C@H](OC(=O)NCc2ccccc2)C[C@@H](C(=O)OC)[C@H]1C(=O)OC)S(=O)(=O)c1ccc(C)cc1	-21%	?
Cc1ccc2c(c1)c1c(n2CC(O)CNC(CO)(CO)CO)CCCC1 (configuration not stated)	-11%	i
Nc1nnc(SC2CCCC2)s1	-3%	-14%
COc1ccc(C(=O)OCc2cc(C)ccc2C)cc1S(=O)(=O)N1CCCC1	-17%	-5%
Cc1ccc(-c2nc3ccccn3c2Nc2ccc3c(c2)OCO3)o1	-5%	-19%
C(=C\c1ccccc1)/CSc1nc2ncccc2[nH]1	-17%	-12%
O=C(Nc1ccc(S(=O)(=O)N2CCCCCC2)cc1)c1c(F)cccc1F	-17%	-5%
FC(F)(F)C1=CC(c2ccc(Br)cc2)=NCCN1	-21%	·
COc1ccc(NC(=O)C2CC(=O)NC(Nc3cccc(C)c3)=N2)cc1 (configuration not stated)	1%	·
CN(C)c1ccc(C2(O)C(=O)c3ccccc3C2=O)cc1	-7%	-5%
COc1ccc(S(=O)(=O)N(C)CC(=O)N2CCOCC2)cc1	-10%	-6%
COc1cc(Cl)c(NS(=O)(=O)c2ccc3[nH]c(=O)ccc3c2)c(OC)c1	-7%	-12%
COc1ccc(CCNC(=O)c2ccc3c(c2)N(Cc2cc(C)ccc2C)C(=O)c2ccccc2S3=O)cc1OC (configuration not stated)	-20%	-27%
COc1ccc(CCC(=O)OCC(=O)Nc2ccc3[nH]c(=O)[nH]c3c2)cc1	-4%	-11%
CS(=O)(=O)N1CCc2cc(-c3csc(NC(=O)C(c4ccccc4)c4ccccc4)n3)ccc21	-23%	-28%
O=C(CNS(=O)(=O)c1cccc(C(F)(F)F)c1)NC1CCCCCC1	-3%	-20%
Cc1ccc(S(=O)(=O)Nc2ccc(C(=O)Nc3ccncc3)cc2)cc1	-10%	-25%
CCN1CCN(c2ccc(NC(=O)c3cccc(S(=O)(=O)N4CCCC4)c3)cc2)CC1	-8%	0%
CC(=O)c1cc(C#N)c(SCc2ccncc2)nc1C	0%	·
Cc1ccccc1C(=O)NCC(=O)Nc1ccc(C)c(S(=O)(=O)N2CCCCCC2)c1	-16%	-11%
COc1ccc(C(=O)N2CCN(c3ccc([N+](=O)[O-])c(-n4nc(C)cc4C)c3)CC2)cc1	?	-7%
C#CCNC(=O)C[C@@H]1C[C@@]2(C(=O)OC)CC(C)(C)CC=C2N(CCc2ccc(OC)c(OC)c2)C1=O	-3%	-6%
Cc1nc(S(=O)(=O)N2CCN(c3cccc(Cl)c3)CC2)cn1C	-1%	-4%
CC(=O)c1cc(-c2ccc(F)cc2)n(CC(=O)NC(C)c2ccccc2)c1C (configuration not stated)	-6%	-6%
CCOC(=O)c1c(C)n(-c2ccc(OC)cc2)c2ccc(OC(=O)COc3ccccc3)cc12	-29%	-14%
SMILES	Vaccinia Venus	VACV mCherry inh
C/C(=C(/CCO)SSCC1CCCO1)N(C=O)Cc1cnc(C)nc1N (configuration not stated)	-10%	-15%
COc1ccccc1OCC(=O)Nc1ccc(S(=O)(=O)N2CCN(C)CC2)cc1	-3%	10%
COc1ccc(C(=O)n2nc(-c3ccccc3)nc2SC)cc1	-14%	-14%
O=C(CN1CCOCC1)Nc1ccc(Oc2ccc(NC(=O)CN3CCOCC3)cc2)cc1	-8%	-10%
Cc1ccc(S(=O)(=O)c2cn(Cc3cccc(C)c3)c3cc4c(cc3c2=O)OCO4)cc1	-18%	-23%
Cc1cc(CNC(=O)[C@H](C)[C@@H]2C[C@@]2(C)[C@@H](NC(=O)OCc2ccccc2)c2ccccc2)nn1C	-12%	-11%
COc1ccc(NS(=O)(=O)c2ccc(NC(=O)c3ccccc3)cc2)nn1	-7%	-6%
Nc1nc(CN2CCCCC2)cs1	-17%	-13%
CC(=O)Oc1ccc(N(C(C)=O)S(=O)(=O)c2ccccc2)c2ccccc12	-6%	?
OCCCNc1ncnc2c1ncn2[C@H]1CN(Cc2ccc(-c3ccccc3)cc2)C[C@@H](CO)O1	-18%	9%
CCC1CCCCN1C(=O)Cn1c(=O)cc(C(F)(F)F)c2c(C)nn(C)c21 (configuration not stated)	-11%	-9%
C[C@H]1CN([C@@H](C)CO)C(=O)CCCn2cc(nn2)CO[C@@H]1CN(C)C(=O)Nc1cccc2ccccc12	-11%	?
COc1ccc(NC(=O)Cc2c(F)c(F)c(F)c(F)c2F)cc1OC	-15%	i
Cc1ccc(NP(=O)(Oc2ccccc2F)Oc2ccccc2F)cc1	-19%	-20%
Cc1nc(N(C)Cc2ccccc2)c2c(C)c(C)sc2n1	-9%	-10%
Cc1cc(O)cc2c1C1CCC3(C)C(=O)CCC3C1C=C2 (configuration not stated)	?	1.8µM*
CC[C@]12C(=O)N(C)C[C@H]([C@@H]3C(=O)N(C)C(=O)[C@@H]31)N2C(=O)c1ccc(C(C)(C)C)cc1	5%	i
Nc1nc(N=Nc2ccc(O)cc2)cc(=O)[nH]1	-12%	-15%
COc1ccc(C)cc1S(=O)(=O)NCC(c1ccc2c(c1)OCO2)N1CCOCC1 (configuration not stated)	-11%	-11%
CCOc1ccccc1NC(=O)CSc1nc(=O)n(Cc2ccccn2)c2c1CCC2	-14%	-1%
CC(C(=O)NC1CC(C)(C)NC(C)(C)C1)c1ccc([N+](=O)[O-])cc1 (configuration not stated)	-14%	-14%
COc1ccc(NC(=O)CC2SC(=N)N(c3ccccc3)C2=O)c(OC)c1 (configuration not stated)	-3%	-11%
Cc1nc(Cl)sc1C(=O)Nc1cccc2ccccc12	?	?
COc1ccc(OC)c(NC(=O)Cn2c(=O)n(CC(=O)NCc3ccco3)c(=O)c3ccccc32)c1	-15%	-4%
CNC(=O)COC(=O)Cc1ccc(Cl)cc1	-7%	-11%
SMILES	Vaccinia Venus	VACV mCherry inh
C=CC[C@H]1C=C[C@@H](C(C(=O)OC)C(=O)OC)CN1C(C)=O	-19%	-13%
CCOCCCN(C(=O)CNC(=O)c1ccco1)C(C(=O)NC1CCCC1)c1cccc(OC)c1 (configuration not stated)	6%	6%
Cc1cc(=O)[nH]c(Nc2ccccc2C)n1	-2%	-13%
COCCNC(=O)c1ccccc1NC(=O)c1cc(OC)cc(OC)c1	-6%	-6%
OCC1(CCc2ccccc2)CCCN(CCCc2ccccc2)C1 (configuration not stated)	-19%	-8%
c1ccc(C2OCC3(CO2)COC(c2ccccc2)OC3)cc1 (configuration not stated)	-25%	-21%
COc1ccc(-c2cc(C)no2)cc1S(=O)(=O)N1CCOc2ccccc21	-7%	-18%
Clc1ncc(Cn2cccn2)s1	-10%	-19%
CC(=O)NC(Cc1ccc(F)cc1)C(=O)N1CCN(C(=O)NCc2ccccc2)CC1 (configuration not stated)	-6%	-2%
ON=Cc1cccn1-c1ccccc1	-4%	-14%
CC(C)OCCCNc1ncc2c(n1)CC(c1ccc(N(C)C)cc1)CC2=O (configuration not stated)	-5%	·
Cc1ccc(C23OCCN2CCn2nc4ccccc4c23)cc1 (configuration not stated)	-3%	i
O=C(C1CCCN(S(=O)(=O)c2cc(Cl)ccc2Cl)C1)N1CCCCCC1 (configuration not stated)	-25%	-11%
COc1ccc(C(=O)c2sc(NC(C)C)nc2N)cc1OC	11µM*	·
OC1(c2ccc(F)cc2)CCN(Cc2ccccc2)C1 (configuration not stated)	-1%	-13%
COC(=O)C1=C(c2cccc(Cl)c2)C[C@@H]2CC[C@H]1N2C(=O)N1CCCC1	-22%	-16%
CCCCNc1ccc(C(CC(N)=O)NC(=O)c2ccccc2)cc1[N+](=O)[O-] (configuration not stated)	?	-12%
CC#Cc1cc2c(cc1O)CCC1C2CCC2(C)C(O)CCC12 (configuration not stated)	?	?
CCN(CC)C(=O)c1c(NC(=O)c2ccccc2F)sc2c1CCC(C(C)(C)C)C2 (configuration not stated)	-14%	-14%
c1ccc(Oc2ncnc3sccc23)cc1	-12%	-4%
CCCCC(=O)Nc1nnc(-c2ccc(OC)cc2)s1	-17%	·
CNc1nc(N)c(C(=O)Nc2cc(C)on2)s1	-1%	i
CCN(Cc1ccccc1)C(=O)COC(=O)c1cc(=O)[nH]c2ccccc12	-15%	i
Cc1ccc2c(=O)n3c(nc2c1)C(CC(C)C)NC(=O)c1cccnc1-3 (configuration not stated)	-7%	-13%
O=C(CN1CCCCC1)c1ccccc1Cl	1%	-16%
SMILES	Vaccinia Venus	VACV mCherry inh
NCCN(Cc1ccc(Cl)c(Cl)c1)c1ccc(Br)cn1	-10%	i
Cc1cc(NC(=O)c2cc(-c3ccc(C)c(C)c3)nc3ccccc23)no1	-3%	-7%
O=C(O)C(=O)/C(=C\c1ccsc1)c1ccc2ccccc2n1	-8%	-1%
Cc1ccc(OCCC(=O)OCC(=O)NCCc2ccc(Cl)cc2)cc1	-12%	i
COc1ccc(-c2nnc(-c3cc(OC)c(OC)c(OC)c3)o2)cc1OC	-18%	·
Cc1ccc(NC(=O)CNCc2ccc(Cl)cc2Cl)cc1S(=O)(=O)N(C)C	-16%	-15%
O=C(CCS(=O)(=O)c1ccccc1)N(CCCN1CCOCC1)c1nc2ccccc2s1	-26%	-14%
Cc1[nH]c2c(C)cccc2c1CN1CCC(CO)(Cc2ccccc2)CC1	-6%	?
O=C(NCC1CCCO1)C1CC(=O)N(c2ccc(F)c(Cl)c2)C1 (configuration not stated)	1%	-13%
O=C(Nc1ccc(Cl)c(Cl)c1)Nc1ccc(Br)cc1F	?	?
CNC(=O)CSc1nnnn1-c1cc(C)ccc1C	-7%	-13%
COc1ccc(N2CC(C(=O)N3CCN(c4ccccc4)CC3)CC2=O)cc1 (configuration not stated)	-12%	-16%
O=C1NC2(CCCCC2)N=C1c1ccc(F)cc1	-10%	-15%
CCCCNc1nc(-c2ccccc2)c(C(=O)OCC)cc1C#N	-29%	·
CCCN1C(C(=O)c2ccccc2)=C(OC(=O)COc2ccc(C)cc2)c2ccccc2S1(=O)=O	?	?
CC(=O)Nc1cccc(NC(=O)c2ccc(C(=O)Nc3cccc(NC(C)=O)c3)nc2)c1	-2%	-15%
CCOC(=O)N1CCN(C(=O)c2cc(COc3ccc(F)cc3F)on2)CC1	-15%	-15%
O=c1[nH]c2ccccc2n1C1CCN(C(c2ccccc2OC(F)(F)F)c2nnnn2Cc2ccccc2)CC1 (configuration not stated)	-26%	-9%
Cc1ccc(S(=O)(=O)c2nnn3c2nc(NCc2ccc4c(c2)OCO4)c2sccc23)cc1C	?	?
O=C(Nc1ccccn1)c1cccs1	-3%	-12%
Clc1cccc(N2CCNCC2)n1	10%	1%
COc1ccc(-c2csc(NC(=S)NC(=O)c3ccc4ccccc4c3)n2)cc1OC	-24%	i
CCC(CC)c1nc2ccccc2c(=O)[nH]1	-6%	i
Cc1nn2c(=O)c(NC(=O)c3ccc(F)cc3)cnc2s1	0%	5%
COC(=O)[C@@]12C[C@@H](CC(=O)NCCc3ccccc3OC)C(=O)N(Cc3ccc4c(c3)OCO4)C1=CCC(C)(C)C2	-17%	-29%
Cc1cccc(CN2CCC(Oc3ccc(C(=O)N4CCCC4)cc3)CC2)n1	-14%	-19%
Cc1ccc(NC(=O)c2nc[nH]c2C(=O)Nc2ccccc2F)cc1	-29%	-27%
COc1ccc(C(=O)O)cc1N1C(=O)Nc2ccccc2N1O	-6%	-2%
COc1ccc(N2CCN(S(=O)(=O)CCNC(=O)Cc3ccc([N+](=O)[O-])cc3)CC2)cc1	-9%	-9%
